From PubChem BioAssay
VACV mCherry inh: inhibitors of vaccinia virus infection (mCherry reporter signal); hit rate 0.63% among 310,000; Potency, µM (top dose mostly 36.5 µM), for the others: top-dose activity change, negative = inhibition, most hits filed as inhibitors; Vaccinia virus mCherry reporter infection, fluorescence; about a quarter of the inactives have no number; active = well fitted inhibition curve with a large enough effect; inconclusive = small, poorly fitted or top-dose-only effect; inactive = no such curve, though single readings can be large or run the other way; tested in A549 cells; also: nearly all actives have a fitted effect of over 35% in size; inactives centre near -10
Vaccinia Venus: vaccinia inhibition (Venus reporter); Potency, µM (series often up to 36.5 µM), inactives show at the highest dose activity change, negative = inhibition, most hits filed as inhibitors; Vaccinia virus Venus reporter expression, fluorescence; hit rate 0.46% among 330,000; active means well fitted inhibition curve with a large enough effect; inconclusive means small, poorly fitted or top-dose-only effect; inactive means no such curve, though single readings can be large or run the other way; tested in A549 cells; also: nearly all actives have a fitted effect of over 30% in size; inactives centre near -10
The depositor's hits bear a star; i = inactive; ? = inconclusive; . = not tested or not shown. % is scaled to controls: 0 for no effect and ±100 for the full control effect; potency is read from the fitted curve at half-maximal effect.

SMILES	VACV mCherry inh	Vaccinia Venus
C[C@H]1CN([C@@H](C)CO)C(=O)CCCn2nncc2CO[C@@H]1CN(C)C(=O)Cc1ccccc1	-3%	-11%
COc1ccccc1C(=O)NCCC(=O)NC1CCCCC1C (configuration not stated)	-17%	-14%
COc1cccc(NC(=O)CN2C(=O)C(=O)N(C3CCCC3)C2=O)c1	-19%	-15%
COc1ccccc1N1CCN(C(=O)c2ccc(NC(C)=O)cc2)CC1	.	-8%
CCCCN1CN=C(Nc2nc3ccccc3o2)NC1	i	-17%
CCOC(=O)c1cc(C)n(CC2CCC(C(=O)Nc3cc(OC)cc(OC)c3)CC2)c1C (configuration not stated)	-15%	-9%
O=P(/C(=N/O)N1CCCCC1)(N1CCOCC1)N1CCOCC1	.	-6%
CC1CCCN(CCCNC(=O)c2cc(Sc3ccc(F)cc3)nc3ccccc23)C1 (configuration not stated)	-28%	-28%
O=C(c1ccccc1)c1ccc(OCC(O)CNC2CCCc3ccccc32)cc1 (configuration not stated)	-9%	-19%
COc1ccc(C2C(C#N)=C(N)Oc3c2c(C)nn3-c2ccccc2)cc1Cn1nc(C)c([N+](=O)[O-])c1C (configuration not stated)	.	-3%
O=C(COc1ccc(Br)cc1)NCCNC(=O)c1cccnc1	-8%	-10%
O=C(c1cc2nc(C3CC3)cc(C(F)(F)F)n2n1)N1CCCC1	.	9%
COc1ccc(-n2c(N)c(C(=O)NCc3cccnc3)sc2=S)cc1	-13%	-7%
CCCN1CCN(C(=O)Nc2cccc(C(F)(F)F)c2)CC1	-9%	-19%
CC1(O)CC(C)(C)C(C#N)C(=O)N1 (configuration not stated)	i	-6%
N#C/C(=C\Nc1ccc(Cl)cc1)S(=O)(=O)c1ccccn1	-18%	-15%
O=C(Oc1cccc(NC(=O)c2cccs2)c1)c1cccc(S(=O)(=O)N2CCCC2)c1	-12%	-11%
NC(=O)c1nsc(C(=O)N(c2ccc(F)cc2)C(C(=O)NCC2CCCO2)c2c[nH]c3ccccc23)c1N (configuration not stated)	-15%	-24%
CC(C)(C)N1C(=O)c2ccc(C(=O)Nc3ccc(O)cc3)cc2C1=O	?	-22%
Cc1ccc(-c2nnn(CC(=O)N(Cc3ccco3)C(C(=O)NC(C)(C)C)c3ccncc3)n2)o1 (configuration not stated)	i	-6%
O=C(Nc1ccccc1)c1cccc2c(-c3cccnc3)coc12	2%	8%
COc1ccc(NC(=O)NCCN2CCc3ccccc3C2)cc1	-6%	-11%
COc1ccccc1-n1cnnc1SCC(=O)Nc1cccc(S(N)(=O)=O)c1	-3%	-5%
Cc1cccc(NC(=O)CSc2nnc(CNC(=O)c3c(F)cccc3Cl)o2)c1C	-5%	-2%
CCC(C)(C)NC(=O)C(c1ccco1)N(C(=O)Cn1nnc2ccccc21)c1ccc2c(c1)OCO2 (configuration not stated)	i	-18%

Some of these compounds in order of heavy-atom count, lowest first.
SMILES	VACV mCherry inh	Vaccinia Venus
CCCCN1CN=C(Nc2nc3ccccc3o2)NC1	i	-17%
O=C(Nc1ccccc1)c1cccc2c(-c3cccnc3)coc12	2%	8%
O=C(Oc1cccc(NC(=O)c2cccs2)c1)c1cccc(S(=O)(=O)N2CCCC2)c1	-12%	-11%
C[C@H]1CN([C@@H](C)CO)C(=O)CCCn2nncc2CO[C@@H]1CN(C)C(=O)Cc1ccccc1	-3%	-11%
CCC(C)(C)NC(=O)C(c1ccco1)N(C(=O)Cn1nnc2ccccc21)c1ccc2c(c1)OCO2 (configuration not stated)	i	-18%

The results go on:
SMILES	VACV mCherry inh	Vaccinia Venus
O=C1C=CC(=O)N1c1ccc2c(c1)C(NC(=O)C(F)(F)F)c1ccccc1-2 (configuration not stated)	-7%	-25%
Cc1ccc(CSc2nnnn2C)cc1	-13%	-11%
NC(=O)C1(N2CCCCC2)CCN(C(=O)c2ccc(C#CC3(O)CCCCC3)cc2)CC1	.	-18%
COc1ccccc1NC(=S)N1CCN(c2ncccn2)CC1	-4%	-4%
CCn1cc(C(=O)NCc2cccc(F)c2)c(=O)c2cc(F)c(N3CCN(C(=O)c4ccco4)CC3)cc21	.	?
COc1ccc(CCCc2nnc(SCc3nc4ccccc4c(=O)[nH]3)n2C)cc1	i	-18%
CCCCOC(=O)C(C)c1c(C)[nH]c(=S)[nH]c1=O (configuration not stated)	.	-4%
Nc1nnc(SCc2ccccc2Cl)s1	-11%	-25%
CCc1ccc(NC(=O)NCCc2c(C)nn(C)c2C)cc1	-1%	11%
COc1ccc(CC2(C)OC(c3ccccc3)=NN2C(C)=O)cc1 (configuration not stated)	i	-10%
COC(=O)/C(C#N)=C/c1c(-c2ccccc2)nc2n1CCS2	-6%	-10%
COc1ccc(NS(=O)(=O)c2ccc(C)c(C(=O)NNC(=O)c3ccccc3O)c2)cc1	-15%	-15%
O=C(O)CSc1nnc(Nc2ccccc2)n1-c1ccccc1	5%	4%
COc1ccc(Cl)cc1NC(=O)CN(C)C(=O)c1cc2c(s1)CCCC2	?	?
COc1ccc(Cl)cc1NC(=O)C/C(C)=N/NC(=O)COc1ccc(C)cc1	-16%	-4%
CCC(CC)C(=O)Nc1cc(=O)n(C)c(=O)n1C	-7%	-5%
Cn1c(CO)cnc1S(=O)(=O)Cc1c(Cl)cccc1Cl	-16%	-8%
CCN(CC(=O)Nc1c(F)cccc1F)C(=O)CN1c2cccc3cccc(c23)S1(=O)=O	?	-2%
O=C(O)C(CCC(C(=O)O)c1ccccc1)c1ccccc1 (configuration not stated)	i	0%
Cc1n[nH]c(=S)n1/N=C/c1ccccc1	-16%	-6%
CCCc1nn2c(=O)cc(COC(=O)c3ccc4c(c3)OCO4)nc2s1	-10%	-8%
CN(C)CCn1cnc2ccccc21	-8%	-4%
O=C(COC(=O)c1ccccc1SCC(=O)N1CCCC1)NC1CCCCC1	-12%	-4%
CCN1CCN(CC(O)COC(c2ccccc2)c2ccccc2)CC1 (configuration not stated)	i	-13%
CC1CCc2cc(F)ccc2N1C(=O)c1ccc2c(c1)OCO2 (configuration not stated)	i	?

A second format for some results above.
SMILES,VACV mCherry inh,Vaccinia Venus
Cc1ccc(CSc2nnnn2C)cc1,-13%,-11%
NC(=O)C1(N2CCCCC2)CCN(C(=O)c2ccc(C#CC3(O)CCCCC3)cc2)CC1,.,-18%
COc1ccccc1NC(=S)N1CCN(c2ncccn2)CC1,-4%,-4%
CCn1cc(C(=O)NCc2cccc(F)c2)c(=O)c2cc(F)c(N3CCN(C(=O)c4ccco4)CC3)cc21,.,?
COc1ccc(CCCc2nnc(SCc3nc4ccccc4c(=O)[nH]3)n2C)cc1,i,-18%

More structures:
SMILES	VACV mCherry inh	Vaccinia Venus
CC(C)NC(=O)N(O)C1N(C(C)C)C(=O)N(Cc2ccc3c(c2)OCO3)C1(C)C (configuration not stated)	-10%	-5%
Cc1ccc(C(=O)Nc2ccc(C(=O)N/N=C/c3cccnc3)cc2)cc1	-15%	-8%
Cc1ccc(C2c3c(-c4cc(C)ccc4O)n[nH]c3C(=O)N2Cc2ccco2)cc1 (configuration not stated)	-13%	?
O=C(Cc1ccccc1)N/N=C/c1ccc(OCC(=O)Nc2ccccc2)cc1	-9%	-21%
COc1ccc(CC2(CCc3ccncc3)C(=O)NC(=O)NC2=O)cc1	-4%	-5%
CC(=O)Nc1cc(C(F)(F)F)ccc1Oc1cccc(Br)c1	.	-17%
Cn1c(Cn2cnc([N+](=O)[O-])n2)nnc1SCC(=O)Nc1cccc(Cl)c1	-9%	0%
O=C(Cn1cc([N+](=O)[O-])cn1)N1CCN(Cc2ccc3c(c2)OCO3)CC1	0%	-6%
Cc1ccc(S(=O)(=O)N2CCCc3ccccc32)cc1	?	?
Fc1ccc(-c2nn(-c3ccccc3)cc2CNCc2ccccc2)cc1	?	-29%
CNS(=O)(=O)c1cccc2nsnc12	-11%	5%
Cc1cccc(NC(=O)c2nnn(-c3cccc(C(F)(F)F)c3)c2N)c1	-12%	-9%
Cc1c(NC(=O)c2ccc3c(c2)OCO3)cccc1-c1nc2ccccc2o1	-26%	-21%
C=CCSc1nc2c(c(=O)[nH]c(=O)n2C)n1CC	.	-10%
COc1cc(-n2c(C)nc3cc(C(=O)N4CCOCC4)ccc32)cc(OC)c1OC	.	-18%
Cn1cc([N+](=O)[O-])c(C(=O)Nc2cc(Oc3ccccc3)cc([N+](=O)[O-])c2)n1	14µM*	?
Cc1ccccc1-n1c(-c2ccoc2C)n[nH]c1=S	-16%	-7%
CCCNC(=O)CS(=O)Cc1nc(-c2cccc(OC)c2)oc1C (configuration not stated)	i	-14%
COc1ccc(CCN(C)c2ccc(C(N)=O)cc2[N+](=O)[O-])cc1OC	i	-20%
CCOc1ccc(NC(=O)C2CCCN2C(=O)NC2CCCCC2)cc1 (configuration not stated)	-4%	3%
CCOc1ccc(CN2C(=O)c3ccccc3Sc3ccc(C(=O)O)cc32)cc1	i	-18%
Cc1ccc(N(C)S(=O)(=O)c2cccc(C(=O)N(C)Cc3cnn(-c4ccccc4)c3)c2)cc1	?	-26%
CCOC(=O)c1ccccc1NC(=O)COC(=O)CCC(=O)N1CCOCC1	i	-17%
CSCCC(N)C(=O)NC(CC(C)C)C(=O)NC(Cc1ccccc1)C(=O)O (configuration not stated)	i	0%
CCN1CCN(C(CNS(=O)(=O)c2ccc(Br)cc2)c2cccnc2)CC1 (configuration not stated)	-14%	-11%

Next part.
SMILES	VACV mCherry inh	Vaccinia Venus
Cc1cc(SCC(=O)N/N=C/c2ccccc2C(=O)O)c(C)cc1Br	i	-7%
O=C(NNC(=O)c1ccc([N+](=O)[O-])cc1)c1ccc(F)cc1	i	11%
COc1ccc(CN2CC(=O)N(c3ccc(Cl)cc3)C2=S)cc1OC	i	-12%
CC(C)Oc1ccc(C(=O)N2CCC(c3nc4ccccc4o3)CC2)cc1	-1%	-5%
COC(=O)c1c(-c2ccc(C)cc2)csc1N	-6%	-6%
CSc1ccccc1-c1nnc(-c2ccc(Cl)c(Cl)c2)o1	-19%	-5%
COc1ccc(NC(=S)NC(NC(C)=O)C(Cl)(Cl)Cl)c([N+](=O)[O-])c1 (configuration not stated)	-1%	-10%
CC12CCC(=O)N1C(C(=O)NCCc1ccc(S(N)(=O)=O)cc1)CS2 (configuration not stated)	-17%	-14%
CCc1cccc(NC(=O)CN(c2ccc(C)cc2)S(=O)(=O)c2cccs2)c1	-17%	-8%
COC(=O)C1=C(c2ccc(OC)c(OC)c2)C[C@@H]2CC[C@H]1N2C(=O)NCCc1ccccc1	-23%	-8%
Cc1nn(Cc2noc(C(=O)NCc3ccccn3)n2)c(C)c1Br	i	-16%
COc1ccc(C(OC(=O)c2ccco2)C(=O)NC2CCCC2)cc1OC (configuration not stated)	-4%	-5%
CC(C)CC(NC(=O)c1ccc(C#CC(C)(C)O)s1)C(=O)O (configuration not stated)	0%	-8%
CC(=O)C(Cc1ccccc1)NC(=O)COC(=O)c1ccc(-n2cnnn2)cc1 (configuration not stated)	-14%	-13%
Cc1ccn2c(NC3CCCCC3)c(-c3ccc(SC4CCCCC4)cc3)nc2c1	1%	0%
O=C1NC(=O)N(c2ccc3c(c2)OCO3)C(=O)/C1=C/c1cccs1	i	20%
O=C(COC(=O)c1ccco1)NCCNC(=O)COC(=O)c1ccco1	-17%	-17%
CS(=O)(=O)c1ccc(C(=O)OCC(=O)NC23CC4CC(CC(C4)C2)C3)cc1[N+](=O)[O-]	?	?
COc1cccc(C(C)(O)c2nc(-c3cccc4cccnc34)cs2)c1 (configuration not stated)	-23%	-25%
Cc1ccc(C(C)n2cc(C(=O)NCCN3CCN(C)CC3)nn2)cc1 (configuration not stated)	-16%	-7%
CCOc1ccc(C2C(=O)N(C3CCCCC3)CC(=O)N2CC2CCCO2)cc1OC (configuration not stated)	-15%	-15%
CCN1CCN(Cc2cc(Br)cc(Br)c2O)CC1	-7%	-8%
C[C@@H]1CC[C@]2(C(=O)O)CC[C@]3(C)C(=CCC4[C@]56CC[C@@](O)(OC5)C(C)(C)C6CC[C@]43C)C2[C@H]1C (some centres not stated)	-25%	-22%
COc1ccccc1Oc1ccc(N2CC(C(=O)OCC(=O)c3ccc(F)cc3)CC2=O)cc1 (configuration not stated)	-9%	-1%
CCC1=NN(C(=O)c2ccccc2Br)C(O)(c2ccc(Br)cc2)C1 (configuration not stated)	?	-29%
O=C(CSc1ccccc1)Nc1cccc(NC(=O)c2ccco2)c1	-30%	-3%
CNC(=O)c1c(NC(=O)c2ccc(S(=O)(=O)N3CC(C)OC(C)C3)cc2)sc2c1CCN(C(C)C)C2 (configuration not stated)	-25%	-20%
CCN(CC)CCNC(=O)c1ccc(NC(=O)c2ccc(Cl)c(S(=O)(=O)N3CCCCCC3)c2)cc1	?	-25%

6 of the compounds above, in markdown:
| SMILES | VACV mCherry inh | Vaccinia Venus |
| --- | --- | --- |
| COC(=O)C1=C(c2ccc(OC)c(OC)c2)C[C@@H]2CC[C@H]1N2C(=O)NCCc1ccccc1 | -23% | -8% |
| COC(=O)c1c(-c2ccc(C)cc2)csc1N | -6% | -6% |
| O=C(NNC(=O)c1ccc([N+](=O)[O-])cc1)c1ccc(F)cc1 | i | 11% |
| CC(=O)C(Cc1ccccc1)NC(=O)COC(=O)c1ccc(-n2cnnn2)cc1 (configuration not stated) | -14% | -13% |
| COc1cccc(C(C)(O)c2nc(-c3cccc4cccnc34)cs2)c1 (configuration not stated) | -23% | -25% |
| CC(C)Oc1ccc(C(=O)N2CCC(c3nc4ccccc4o3)CC2)cc1 | -1% | -5% |
